Bioassay records as filed in PubChem BioAssay.
YopH inh: YopH tyrosine phosphatase inhibitors, primary screen, biochemical, fluorescence Ex485/Em525; YopH tyrosine phosphatase [Yersinia enterocolitica]; inhibition, %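 (about 10 µM by stock and volumes)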; AID 898, 2007; 0.16% of 140,000 active;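 active = inhibition of 50% or more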;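 note: controls were vehicle for no effect and minimum signal wells for full effect; inactives centre near -20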
RecA splice inh: Mtb RecA intein splicing inhibitors, primary screen, biochemical, fluorescence, HTS; cell-free RecA intein splicing; 0.75% of 290,000 active; Protein RecA (Mycobacterium tuberculosis (strain ATCC 25618 / H37Rv)), P9WHJ3; inhibition, %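 (about 9 µM by stock and volumes)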; in the data active = inhibition above about 30%;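 note: 0% = vehicle wells and 100% = reference inhibitor control wells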
Target sequence (P9WHJ3 whole entry, looked up, canonical isoform): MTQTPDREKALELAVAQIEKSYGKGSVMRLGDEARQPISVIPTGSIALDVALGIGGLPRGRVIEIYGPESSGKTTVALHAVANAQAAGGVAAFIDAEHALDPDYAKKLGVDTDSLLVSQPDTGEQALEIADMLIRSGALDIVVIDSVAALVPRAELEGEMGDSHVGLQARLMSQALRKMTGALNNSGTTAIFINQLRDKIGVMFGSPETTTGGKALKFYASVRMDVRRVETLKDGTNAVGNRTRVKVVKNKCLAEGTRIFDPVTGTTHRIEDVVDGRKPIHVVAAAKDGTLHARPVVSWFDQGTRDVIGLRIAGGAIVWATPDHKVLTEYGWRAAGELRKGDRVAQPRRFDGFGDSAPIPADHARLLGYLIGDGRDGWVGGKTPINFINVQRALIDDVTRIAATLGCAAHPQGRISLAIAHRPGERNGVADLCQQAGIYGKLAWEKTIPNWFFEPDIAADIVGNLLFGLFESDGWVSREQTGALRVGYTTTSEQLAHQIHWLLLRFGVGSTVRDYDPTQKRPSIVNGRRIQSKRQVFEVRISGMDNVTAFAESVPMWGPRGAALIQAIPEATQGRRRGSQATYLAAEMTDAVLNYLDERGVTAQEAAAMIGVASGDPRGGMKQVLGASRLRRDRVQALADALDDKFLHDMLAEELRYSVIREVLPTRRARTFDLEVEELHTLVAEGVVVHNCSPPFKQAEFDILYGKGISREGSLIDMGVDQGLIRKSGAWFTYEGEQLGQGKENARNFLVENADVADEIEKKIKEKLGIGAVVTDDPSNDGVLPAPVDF
Mtb betalactam: beta-lactam sensitization of Mtb H37Rv, H37Rv; M. tuberculosis H37Rv growth with meropenem, percent inhibition; hits of this screen are not shown here; inhibition, % at 25 µM; 0.27% of 330,000 active;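 active = about 74% or more and at least 40 points above the plate without the antibiotic, then above 30% in a dose series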;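 note: growth measured after seven days incubation then overnight dye step; 0% = bacteria only wells and 100% = bacteria with antibiotic; twin plates without the antibiotic show which effects depend on it; some results filed as inactive read as strong as hits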
Arbovirus inh: antivirals against arbovirus infection, primary screen, cell-based, full library, 10K replicate subset; arbovirus infection cell-based antiviral screen; inhibition, % at 10 µM; 0.37% of 200,000 active; AID 1251, 2008;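 active = inhibition from about 30%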;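 note: bluetongue infection of BSR cells; cell survival read as ATP light after 72 h; 0% = infected wells without compound and 100% = uninfected wells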
Mtb growth: M. tuberculosis H37Rv growth inhibitors, H37Rv strain (AID 1626); M. tuberculosis H37Rv growth inhibition; higher % means a stronger effect; one-dose inhibition, % at 10 µM; IC50 in µM for titrated hits; 0.95% of 220,000 active;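 active = confirmed in a dose series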;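 note: bacteria incubated seven days before Alamar blue readout; 0% = bacteria only wells and 100% = bacteria with antibiotic wells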
Arbovirus inh repeat: also measured in Arbovirus inh; calls as there; inhibition, %; measured here: 10K subset replicate screen; many hits read low in the repeat;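 first of two repeat runs on a subset; 0% = infected and 100% = uninfected wells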
Starred values were filed as active, the others as inactive.

The first 2 compounds, to show the layout:
Screening Cc1nc2c(ncn2-c2ccccc2)c(=O)n1NC(=O)CN1CCN(C)CC1 returned RecA splice inh -6.0, Mtb betalactam 3.1 and Mtb growth 7.9%.
COc1cccc2c(=O)cc(C)n(CC(=O)Nc3ccc(Br)cc3)c12 was read as RecA splice inh -0.4, Mtb betalactam -5.0 and Mtb growth -7.3%.

This part in full, repeating the preview:
Screening Cc1nc2c(ncn2-c2ccccc2)c(=O)n1NC(=O)CN1CCN(C)CC1 returned RecA splice inh -6.0, Mtb betalactam 3.1 and Mtb growth 7.9%.
COc1cccc2c(=O)cc(C)n(CC(=O)Nc3ccc(Br)cc3)c12 was read as RecA splice inh -0.4, Mtb betalactam -5.0 and Mtb growth -7.3%.
`CCOC(=O)/C(C#N)=C/c1c(N2CCN(CC)CC2)nc2c(C)cccn2c1=O` gave RecA splice inh -28.1 and Mtb betalactam 11.4.
Cc1csc2ncc(C(=O)Nc3ccc4c(c3)OCCO4)c(=O)n12 was read as RecA splice inh -7.5, Mtb betalactam 0.2, Arbovirus inh -6.6 and Mtb growth 1.3%.
Screening CCOCCCNC(=O)C1CC(=O)N(CCc2ccccc2)C1 (centres undefined) returned RecA splice inh 0.5 and Mtb betalactam 2.2.
Screening C=CCn1c(SCc2ccc(C(=O)OC)cc2)nnc1-c1sc(N)nc1C returned YopH inh 12.4, RecA splice inh 0.1, Mtb betalactam -3.0, Arbovirus inh 10.3 and Mtb growth 15.1%.
c1ccc(COc2ccc(CNn3cnnc3)cc2)cc1 was read as YopH inh 0.9, RecA splice inh -2.8, Mtb betalactam -3.7, Arbovirus inh -0.2 and Mtb growth -2.4%.
Screening CCN(CC)CCNc1cc(C)c(C#N)c2nc3ccccc3n12 returned RecA splice inh -193.1 and Mtb betalactam -2.9.
For COc1ccc(-n2nc(C(=O)NCC(=O)N3CCC4(CC3)OCCO4)c3ccccc3c2=O)cc1Cl the results were RecA splice inh 1.0 and Mtb betalactam 23.0.
For C#CCNC(=O)C1=C[C@H](C)C[C@H](OCc2ccc(CO)cc2)O1 the results were RecA splice inh -0.4, Mtb betalactam -2.6 and Mtb growth -5.6%.
Screening Cc1cccc(N(C)Cc2nnc(-c3cccc(Br)c3)o2)c1 returned RecA splice inh -7.5 and Mtb betalactam 0.2.
O=C(CSc1ccc2c(c1)OCCO2)NCc1ccccc1 was read as RecA splice inh 0.7, Mtb betalactam 22.8, Arbovirus inh -3.9 and Mtb growth 2.4%.
`O=C(c1cnccn1)N1CCN(S(=O)(=O)c2ccc3ccccc3c2)CC1` gave YopH inh 0.0, RecA splice inh 2.0, Mtb betalactam -11.1, Arbovirus inh 11.8 and Mtb growth -9.2%.
`Cc1ccccc1NC(=O)Cn1nnc(-c2ccc(CN3CCC(C)CC3)cc2)n1` gave RecA splice inh -0.9, Mtb betalactam 0.7 and Mtb growth -1.4%.
For C=CCn1c(=O)c2ccc(C(=O)NCc3ccccc3)cc2n(Cc2ccccc2Cl)c1=O the results were YopH inh -15.7, RecA splice inh -1.6, Mtb betalactam 2.4, Arbovirus inh -9.5 and Mtb growth 1.4%.
Cc1cc(C)cc(NC(=O)C(Sc2nnc(C)c(=O)[nH]2)c2ccccc2)c1 (centres undefined) was read as RecA splice inh -0.2, Mtb betalactam 2.0 and Mtb growth -12.8%.
Screening CCc1nn(C(C)C(=O)NC2CCCCCC2)c(=O)c2cc3occc3n12 (centres undefined) returned RecA splice inh -2.5 and Mtb betalactam 3.9.
`C/C(=N\NC(=O)CCc1ccccc1)C1C(=O)c2ccccc2C1=O` gave RecA splice inh 5.6, Mtb betalactam 24.1, Arbovirus inh -24.5 and Mtb growth -11.8%.
`CC(C)N(C(=O)CSc1nnc(NC(=O)c2ccco2)s1)C(C)C` gave RecA splice inh -1.6, Mtb betalactam -2.2, Arbovirus inh 13.4 and Mtb growth 9.1%.
`O=C(NCc1ccc(Cl)cc1)C(=O)NCC1CCCN1S(=O)(=O)c1cccs1` (centres undefined) gave RecA splice inh 3.0 and Mtb betalactam -12.0.
Screening COc1ccccc1NS(=O)(=O)c1cccc(NC(=S)NCCN2CCOCC2)c1 returned YopH inh -11.6, RecA splice inh -2.2, Mtb betalactam -2.0, Arbovirus inh 6.5 and Mtb growth -2.3%.
For CCN(CC)S(=O)(=O)c1ccc2c(c1)c(=O)c(C(=O)N1CCN(c3ccccc3)CC1)cn2C the results were YopH inh -8.1, RecA splice inh 0.0, Mtb betalactam 2.4, Arbovirus inh 7.1 and Mtb growth -14.8%.
`COc1ccc(CCNC(=O)C2CCN(S(=O)(=O)c3ccc(OC)cc3)CC2)cc1` gave RecA splice inh 0.2 and Mtb betalactam -13.8.
O=C(Nc1ccccc1F)c1cc(S(=O)(=O)N2CCCCC2)cs1 was read as YopH inh -42.7, RecA splice inh 2.7, Mtb betalactam -3.0, Arbovirus inh 11.4 and Mtb growth 4.5%.
For CCN(CC)CCN1C(=O)c2ccccc2NC1c1cccc(F)c1 (centres undefined) the results were YopH inh -0.1, RecA splice inh -1.3, Mtb betalactam 0.7, Arbovirus inh 8.4, Mtb growth -3.9% and Arbovirus inh repeat 4.1.
OCCNCCc1c[nH]c2ccc(OCc3ccccc3)cc12 was read as RecA splice inh 0.9 and Mtb betalactam 0.6.
CC1CN(C(=O)c2cccc(COc3ccccc3Cl)c2)CC(C)O1 (centres undefined) was read as RecA splice inh 1.4, Mtb betalactam 0.4, Arbovirus inh 1.1 and Mtb growth 2.4%.
Cn1ncc2c(NNC(=O)C3CCCCC3)ncnc21 was read as RecA splice inh 0.6, Mtb betalactam -0.4, Arbovirus inh 15.4 and Mtb growth -1.2%.
Screening CCC1CCCCN1C(=O)c1cc2cc(Br)ccc2oc1=O (centres undefined) returned YopH inh -52.4, RecA splice inh -0.2, Mtb betalactam 6.3, Arbovirus inh 7.9, Mtb growth -3.8% and Arbovirus inh repeat 3.0.
`O=C(O)CC(C(=O)Nc1ccc(Cl)cc1Cl)C1CCCO1` (centres undefined) gave RecA splice inh 5.0, Mtb betalactam -3.9, Arbovirus inh 4.8 and Mtb growth -2.8%.
For CCOc1ccc(-c2ccc(SCC(=O)N3CCN(c4ccccc4)CC3)nn2)cc1 the results were YopH inh -11.4, RecA splice inh -0.6, Mtb betalactam 3.0, Arbovirus inh -3.3 and Mtb growth 5.3%.
CC1CCN(CCCCOc2ccc([N+](=O)[O-])cc2)CC1 was read as YopH inh -34.1, RecA splice inh -3.3, Mtb betalactam -13.8 and Arbovirus inh -0.8.
For Cc1ccc(-c2cc(C(=O)NC3CCCCC3)no2)cc1 the results were RecA splice inh -3.6 and Mtb betalactam -1.1.
Screening CC1=C(C(=O)OCC(C)C)C(c2cccc(F)c2)N2C(=O)C(C)SC2=N1 (centres undefined) returned YopH inh -37.2, RecA splice inh 10.1, Mtb betalactam 0.7, Arbovirus inh -10.6 and Mtb growth -1.3%.
Screening CCOc1ccccc1NC(=O)C(C)SCc1ccccc1 (centres undefined) returned RecA splice inh -0.1 and Mtb betalactam 5.8.
`O=C(CSc1nccc(=O)[nH]1)Nc1ccc(N2CCOCC2)c(Cl)c1` gave RecA splice inh -5.4 and Mtb betalactam -3.5.
CCOC(=O)C1CCCN(c2c(Nc3cccc(C)c3)c(=O)c2=O)C1 (centres undefined) was read as RecA splice inh 1.9, Mtb betalactam -0.1, Arbovirus inh 12.1, Mtb growth -3.3% and Arbovirus inh repeat 1.9.
`O=[N+]([O-])c1nn(-c2ccc3c(c2)OCCO3)n(O)c1=NC1CCN(Cc2ccccc2)CC1` gave RecA splice inh 0.4, Mtb betalactam -4.1, Arbovirus inh -22.3 and Mtb growth -5.9%.
`c1ccc(Sc2ncnc3c2oc2ccccc23)nc1` gave YopH inh -42.0, RecA splice inh 1.3, Mtb betalactam -11.1, Arbovirus inh 9.6 and Mtb growth 1.8%.
`O=C(c1ccccc1)N1CCN(CC(O)Cn2ccc3ccccc32)CC1` (centres undefined) gave RecA splice inh 0.2 and Mtb betalactam -0.1.

Arranged by molecular weight (low to high): 3 of the compounds above.
For Cc1ccc(-c2cc(C(=O)NC3CCCCC3)no2)cc1 the results were RecA splice inh -3.6 and Mtb betalactam -1.1.
Screening CCOc1ccccc1NC(=O)C(C)SCc1ccccc1 (centres undefined) returned RecA splice inh -0.1 and Mtb betalactam 5.8.
For CCN(CC)S(=O)(=O)c1ccc2c(c1)c(=O)c(C(=O)N1CCN(c3ccccc3)CC1)cn2C the results were YopH inh -8.1, RecA splice inh 0.0, Mtb betalactam 2.4, Arbovirus inh 7.1 and Mtb growth -14.8%.

Additional entries follow:
For CSc1nc2ccc(C)cc2c(=O)n1-c1cccnc1 the results were RecA splice inh -0.3, Mtb betalactam -11.5 and Mtb growth -1.4%.
`CCOC(=O)c1sc2nc(NC(=O)C3CCCCC3)sc2c1C` gave YopH inh -25.5, RecA splice inh -1.7, Mtb betalactam 4.3, Arbovirus inh 0.9, Mtb growth 6.9% and Arbovirus inh repeat 1.1.
CCCc1nnc(SCC(=O)N2CCCCC2C)n1CCCOC (centres undefined) was read as YopH inh -30.3, Mtb betalactam -2.5, Arbovirus inh 7.0 and Mtb growth 0.6%.
COc1ccc(C(C(=O)NC2CCCC2)N(C(=O)c2snc(C(N)=O)c2N)c2cc(C)ccc2OC)cc1OC (centres undefined) was read as RecA splice inh -1.4 and Mtb betalactam -6.4.
`C/C(=N\OCC(=O)N/N=C/c1ccccc1O)c1cccs1` gave YopH inh -24.9, Mtb betalactam 3.6, Arbovirus inh -28.1 and Mtb growth -4.0%.
Screening C=C(C)COc1ccc(-c2nc(N)ncc2-c2ccccc2OC)c(O)c1 returned RecA splice inh -0.9, Mtb betalactam 4.7 and Mtb growth -11.2%.
Cc1ccc(NC(=O)c2ccc(=O)n(CC(=O)Nc3c(C)cc(C)cc3C)n2)cc1 was read as RecA splice inh -2.3 and Mtb betalactam -3.6.
For COc1cc(/C=C/C(=O)OCC(=O)NCc2ccco2)cc(OC)c1OC the results were YopH inh -6.7, RecA splice inh 7.4, Mtb betalactam 4.5, Arbovirus inh 1.9 and Mtb growth -5.4%.
CCNC(=O)NC(=O)C(C)Sc1nc2ccccc2n1CC(C)C (centres undefined) was read as YopH inh -2.5, RecA splice inh -1.2, Mtb betalactam 3.7, Arbovirus inh -2.3 and Mtb growth 3.2%.
CC1(C)Cc2nc3sc4c(=O)n(CC(=O)NCc5ccccc5)cnc4c3cc2CO1 was read as YopH inh -29.3, RecA splice inh -2.3, Mtb betalactam 3.6, Arbovirus inh -18.2 and Mtb growth -2.0%.
`Cc1ccccc1NC(=O)c1ccc(NC(=O)C2CC(=O)OC23CCCCC3)cc1` (centres undefined) gave RecA splice inh -0.2, Arbovirus inh -8.8 and Mtb growth -2.8%.
Screening Cc1cccc(NS(=O)(=O)c2ccccc2)n1 returned YopH inh -30.1, RecA splice inh -0.6, Mtb betalactam 3.3, Arbovirus inh 5.1, Mtb growth 0.2% and Arbovirus inh repeat 0.1.
`CCOCCCNC(=S)NNC(=O)CCn1nc(C)c(Br)c1C` gave YopH inh -11.6, RecA splice inh 2.4, Mtb betalactam -11.4, Arbovirus inh 4.9 and Mtb growth 1.6%.
For CC(=O)N1CCN(C(=O)CC2OC(=O)c3ccccc32)CC1 (centres undefined) the results were YopH inh -49.3, RecA splice inh 7.7, Mtb betalactam 5.6, Arbovirus inh 12.2 and Mtb growth 2.8%.
For CC(c1nnc(SCC(=O)c2c(N)n(C)c(=O)n(C)c2=O)n1-c1ccc(Cl)cc1)N(C)C (centres undefined) the results were YopH inh -32.4, RecA splice inh 1.9, Mtb betalactam 3.7, Arbovirus inh 10.2 and Mtb growth -2.1%.
C/C(=N\NC(=O)NC1CCCCC1)c1ccc(Cl)s1 was read as RecA splice inh 2.4 and Mtb betalactam 6.7.
For O=C(Nc1nc2ccc(S(=O)(=O)N3CCCCC3)cc2s1)C1CCCO1 (centres undefined) the results were YopH inh -31.4, RecA splice inh -2.1, Mtb betalactam -3.6, Arbovirus inh -4.3 and Mtb growth 1.2%.
COc1cccc2sc(NNC(=O)C3COc4ccccc4O3)nc12 (centres undefined) was read as RecA splice inh -3.4, Mtb betalactam 64.1, Arbovirus inh 11.1 and Mtb growth 0.4%.
`Cc1c(Br)c([N+](=O)[O-])nn1CC(=O)N1CCc2ccccc21` gave RecA splice inh -0.8, Mtb betalactam 1.0, Arbovirus inh -0.3 and Mtb growth 1.8%.
Screening O=C1[C@H]2[C@@H](/C=C/c3ccccc3)N3C(=O)CN(CCO)C(=O)[C@@]3(Cc3ccccc3)[C@H]2C(=O)N1c1ccccc1 returned RecA splice inh -1.8 and Mtb betalactam -3.2.
Screening COc1ccc(/C(C)=N/N2C(=O)c3ccccc3NC2c2ccc(O)c(OC)c2)cc1 (centres undefined) returned RecA splice inh -2.0, Mtb betalactam 3.3 and Arbovirus inh -1.1.

Not all compounds are listed; rates above refer to the full screens.
